Bioassay records: PubChem BioAssay, several laboratories
Mtb H37Rv – M. tuberculosis H37Rv growth inhibitors, H37Rv strain (AID 1626) | M. tuberculosis H37Rv growth inhibition; higher % means a stronger effect | inhibition, % at 10 µM, or IC50 in µM where a hit was titrated | 220,000 tested, 0.95% active;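 active = confirmed in a dose series; inconclusive = inhibition above 80% but not taken into the dose series; inactive = below 80% or under 30% at every dose of the series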;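 note: bacteria incubated seven days before Alamar blue readout; 0% = bacteria only wells and 100% = bacteria with antibiotic wells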
YopH inh – YopH tyrosine phosphatase inhibitors, primary screen, biochemical, fluorescence Ex485/Em525. inhibition, %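 (about 10 µM by stock and volumes)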. 140,000 tested, 0.16% active. AID 898, 2007;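 active = inhibition of 50% or more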;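 note: controls were vehicle for no effect and minimum signal wells for full effect; inactives centre near -20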
Arbovirus anti – antivirals against arbovirus infection, primary screen, cell-based, full library, 10K replicate subset; arbovirus infection cell-based antiviral screen; inhibition, % at 10 µM; 200,000 tested, 0.37% active; AID 1251, 2008;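 active = inhibition from about 30%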;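 note: bluetongue infection of BSR cells; cell survival read as ATP light after 72 h; 0% = infected wells without compound and 100% = uninfected wells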
RecA splice inh – Mtb RecA intein splicing inhibitors, primary screen, biochemical, fluorescence, HTS; Protein RecA (Mycobacterium tuberculosis (strain ATCC 25618 / H37Rv)), P9WHJ3; cell-free RecA intein splicing; inhibition, %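 (about 9 µM by stock and volumes)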; 290,000 tested, 0.75% active; in the data active = inhibition above about 30%; inconclusive = no clear call, values can overlap the other calls;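 note: 0% = vehicle wells and 100% = reference inhibitor control wells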
Target sequence (P9WHJ3 whole entry, looked up, canonical isoform): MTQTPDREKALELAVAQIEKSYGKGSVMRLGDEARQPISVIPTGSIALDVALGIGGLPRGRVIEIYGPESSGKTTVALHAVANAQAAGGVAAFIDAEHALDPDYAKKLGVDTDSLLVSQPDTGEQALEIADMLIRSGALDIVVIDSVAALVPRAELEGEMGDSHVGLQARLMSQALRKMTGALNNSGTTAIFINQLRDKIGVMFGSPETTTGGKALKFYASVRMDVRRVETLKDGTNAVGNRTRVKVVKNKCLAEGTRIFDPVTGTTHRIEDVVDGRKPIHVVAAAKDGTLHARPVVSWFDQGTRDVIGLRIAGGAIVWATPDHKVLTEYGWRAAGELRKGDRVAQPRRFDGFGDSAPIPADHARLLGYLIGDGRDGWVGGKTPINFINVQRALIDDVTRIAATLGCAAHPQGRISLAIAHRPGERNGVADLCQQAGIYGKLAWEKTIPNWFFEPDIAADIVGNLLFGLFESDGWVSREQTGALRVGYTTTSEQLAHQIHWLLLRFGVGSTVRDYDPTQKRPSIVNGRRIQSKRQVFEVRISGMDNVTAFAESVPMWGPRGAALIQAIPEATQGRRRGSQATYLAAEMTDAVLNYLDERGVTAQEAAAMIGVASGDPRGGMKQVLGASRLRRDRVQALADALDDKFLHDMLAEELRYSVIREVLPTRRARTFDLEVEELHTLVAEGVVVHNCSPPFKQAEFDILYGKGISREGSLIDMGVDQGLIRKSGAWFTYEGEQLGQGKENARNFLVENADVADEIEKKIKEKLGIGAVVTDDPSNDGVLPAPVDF
Mtb bLac sens – beta-lactam sensitization of Mtb H37Rv, H37Rv | inhibition, % at 25 µM | 330,000 tested, 0.27% active | M. tuberculosis H37Rv growth with meropenem, percent inhibition; hits of this screen are not shown here | AID 434955, 2010;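 active = about 74% or more and at least 40 points above the plate without the antibiotic, then above 30% in a dose series; inconclusive = first-round hits that could not be retested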;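 note: growth measured after seven days incubation then overnight dye step; 0% = bacteria only wells and 100% = bacteria with antibiotic; twin plates without the antibiotic show which effects depend on it; some results filed as inactive read as strong as hits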
Arbovirus anti repeat – further read-out of Arbovirus anti, marked with its call; inhibition, %; measured here: 10K subset replicate screen; many hits read low in the repeat;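 first of two repeat runs on a subset; 0% = infected and 100% = uninfected wells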
* = called active by the depositor; ? = inconclusive; . = no result given; & = joins results of further samples.

SMILES | Mtb H37Rv | YopH inh | Arbovirus anti | RecA splice inh | Mtb bLac sens | others
CSCCCc1cn([C@@H](CO)C(=O)NCCCCCCCCCCC(=O)N2CCNCC2)nn1 | . | . | . | -1.1 | -1
Cc1ccc(S(=O)(=O)N2CCC(n3nnc4cc(C)ccc43)CC2)cc1 | 2% | -6 | 2 | 1.1 | 1
CCOC(=O)C(CO)(NC(C)=O)C(=O)OCC | 5% | -32 | 6 | -1.2 | -2
COC(=O)c1ccc(OCCN2CCCCCC2)cc1 | -7% | . | -5 | -4.0 | 1
COCCCNC(=O)c1ccc(-c2csc(C)n2)cc1 | -1% | . | -8 | . | -6
CN(C(=O)COC(=O)c1ccc(Br)c([N+](=O)[O-])c1)c1c(N)n(Cc2ccccc2)c(=O)[nH]c1=O | . | . | . | -2.4 | -5
NS(=O)(=O)c1ccc(N/N=C/c2ccc[nH]2)c([N+](=O)[O-])c1 | -2% | . | . | -2.1 | 4
O=C(Cn1cc(C(=O)C(F)(F)F)c2ccccc21)NCc1ccco1 | 2% | . | 1 | 2.3 | 2
COc1ccc(NC(=O)CSc2nnnn2C2CCCCC2)c(OC)c1 | . | . | . | -1.8 | 0
CC(NC(=O)Nc1ccc(Br)cc1)C(C)(C)C (configuration not stated) | 0.42µM* | . | 15 | 2.7 | 100
OCCN(CCCn1c(-c2ccncc2)nc2ccccc21)c1nc(CN2CCCCC2)cs1 | . | . | . | 1.2 | -7
COc1ccc(C2NCc3ccccc3-n3cccc32)cc1 (configuration not stated) | 6% | -43 | 2 | -3.6 | -5
Cc1c(Cl)c(C(F)(F)F)nn1CC(=O)N1CCSCC1 | 0% | 0 | 8 | -1.2 | -11
COc1ccc(C)cc1S(=O)(=O)N(CC(=O)Nc1cccc([N+](=O)[O-])c1)c1ccc(C)cc1 | 7% | -18 | 4 | 0.6 | 1
O=C(/C=C/c1ccc(OC(F)F)cc1)Nc1cccc(S(=O)(=O)N2CCOCC2)c1 | . | . | . | 0.4 | 6
Cc1c(C(=O)OC(C)CCN(C)C)oc2ccccc12 (configuration not stated) | -2% | -26 | 5 | . | -1
c1ccc(CSc2nnc(NC3=NCCCCC3)s2)cc1 | -6% | -23 | 8 | 9.3 | -3
COc1ccc(NC(=S)N(CCCN2CCCCC2)Cc2cccs2)cc1 | 5% | -4 | 11 | 1.4 | 8
CCN(CC(=O)Nc1ccccc1OC)C(=O)CSCc1c(C)noc1C | . | . | . | -1.8 | -16
CC1CCCN(C(=O)Cn2cnc3c2c(=O)n(C)c(=O)n3C)C1 (configuration not stated) | 11% | -11 | 0 | 0.5 | -4
Cc1ccc(Sc2cc(C)nc(-c3ccccn3)n2)cc1 | 2.3µM* | . | . | 5.3 | 89
O=C(CSc1nnc(-c2ccncc2)n1-c1ccc(Cl)cc1)Nc1ccc(C(=O)O)cc1 | -4% | . | -4 | -1.6 | -4
Cc1ccc(N(C(=O)c2csnn2)C(C(=O)NC2CCCC2)c2ccccn2)cc1 (configuration not stated) | . | . | . | 0.4 | 1
COc1ccc(OCC(=O)Nc2ccc(S(=O)(=O)N3CCN(C)CC3)cc2)cc1 | -5% | . | 1 | . | 5
CCCC(=O)Nc1ccccc1N1CCN(C(=O)c2ccccc2)CC1 | -7% | -21 | 13 | 2.6 | 1
CCCCNC(=O)CCc1nc2cccnc2n1Cc1ccc(OC)cc1 | -2% | 12 | -1 | -1.7 | 1
COc1ccc(/C=N/NC(=O)COc2cccc3cccnc23)cc1OC | 2% | . | 2 | 2.5 | -1
COc1ccc2[nH]c(=O)c(CN(C(=O)COc3ccccc3)C(C)C)cc2c1 | -10% | -41 | -1 | -1.3 | -1
CCc1nnc(NC(=O)COc2ccccc2[N+](=O)[O-])s1 | -4% | . | . | -1.9 | -8
COCCn1c(SCC(=O)NNC(=O)c2ccc(OC)c(OC)c2)nc2ccccc2c1=O | 1% | . | 6 | 3.7 | -7

As a working copy, part of the list above:
SMILES | Mtb H37Rv | YopH inh | Arbovirus anti | RecA splice inh | Mtb bLac sens | others
Cc1c(C(=O)OC(C)CCN(C)C)oc2ccccc12 (configuration not stated) | -2% | -26 | 5 | . | -1
c1ccc(CSc2nnc(NC3=NCCCCC3)s2)cc1 | -6% | -23 | 8 | 9.3 | -3

Following part
SMILES | Mtb H37Rv | YopH inh | Arbovirus anti | RecA splice inh | Mtb bLac sens | others
COc1ccc(C2=C(CN(C)C)C(c3ccccc3)c3ccccc3O2)cc1 (configuration not stated) | 19% | -25&-11 | -14&-30 | 12&3.8 | 9&4
C(=C\c1ccccc1)/C=N/Nc1nncc(-c2ccccc2)n1 | -14% | -20 | -15 | -1.3 | 16
C/C(=N\N=C1/NC(=O)C(C)S1)c1ccco1 (configuration not stated) | 5% | . | 2 | 1.2 | 2
COc1ccc(NC(=O)COc2ccc(/C=N/NC(=O)c3cccnc3)cc2OC)cc1 | 7% | -31 | -1 | -1.3 | 5
O=c1c(Cc2ccc(F)cc2)c(O)ccn1Cc1cccc(Cl)c1 | 1% | -8 | 9 | -1.3 | -1
O=C(CNC(=O)Cc1ccccc1)N=Nc1c(O)[nH]c2ccc(Br)cc12 | . | . | . | 9.8 | -5
CC(C)Cc1ccc(C(C)C(N)=NCCc2ccccc2)cc1 (configuration not stated) | . | . | . | 2.2 | 98
CCCCNC(C(=O)Nc1ccc(Cl)c([N+](=O)[O-])c1)c1ccccc1 (configuration not stated) | -3% | -27 | 2 | 0.0 | 1
COc1ccc(C2NC(=S)N(c3ccccc3)C(C)=C2C(=O)Nc2ccccc2)cc1 (configuration not stated) | 3% | 2 | -9 | 2.3 | 2
Cc1ccnc(NS(=O)(=O)c2ccc(NC(=O)Cc3cccs3)cc2)n1 | -7% | 19 | 9 | 2.0 | 4
Cc1nc(NCC2CCCO2)c2nnn(Cc3ccccc3)c2n1 (configuration not stated) | 1% | -50 | -4 | 0.1 | ?
Cc1cc(C)c(C#N)c(SCC(=O)Nc2ccccc2C)n1 | -6% | . | -2 | 3.1 | -5
C(#Cc1ccccc1)CN1CCN(c2ccccn2)CC1 | 6% | -37 | 6 | . | -11 | Arbovirus anti repeat=1
O=C(N/N=C/c1ccc[nH]1)c1cc(-c2ccc(Cl)cc2)nc2ccccc12 | 18% | . | -11 | -3.9 | 30
Cc1cccc(C(=O)NCC(=O)N2CCN(c3ccc(Cl)cc3)CC2)c1 | . | . | . | 0.4 | 5

Molecules listed so far that contain a CF3 group (2):
SMILES | Mtb H37Rv | YopH inh | Arbovirus anti | RecA splice inh | Mtb bLac sens | others
O=C(Cn1cc(C(=O)C(F)(F)F)c2ccccc21)NCc1ccco1 | 2% | . | 1 | 2.3 | 2
Cc1c(Cl)c(C(F)(F)F)nn1CC(=O)N1CCSCC1 | 0% | 0 | 8 | -1.2 | -11

Continued.
SMILES | Mtb H37Rv | YopH inh | Arbovirus anti | RecA splice inh | Mtb bLac sens | others
COc1ccc(Br)cc1C(=O)Nc1ccc(Cc2ccncc2)cc1 | ? | -30 | -6 | 4.6 | -5
Cc1ccc(C(=O)NCC(=O)OC(C)C(=O)Nc2ccc(N3CCOCC3)cc2)s1 (configuration not stated) | 14% | . | . | -0.4 | -2
Cc1ccc(C(=O)NC(=S)NCc2cccnc2)c(C)c1 | -3% | . | 4 | -3.1 | -1
Oc1ccc(CCC2CCCCN2Cc2nc(C3CC3)no2)cc1 (configuration not stated) | -4% | . | -14 | -1.4 | -1
CC1CCC(NC(=O)COc2ccccc2C(N)=O)CC1 (configuration not stated) | 4% | 11 | -3 | 0.2 | -4
O=C(NCc1cccs1)c1csc2c1CCCCC2 | 5% | -15 | 3 | 0.1 | 5
Cn1c(=O)n(Cc2ccccc2Br)c2ccccc21 | -1% | . | 19 | 2.4 | -5
CCOCCCn1c(SCC(=O)Nc2cc(C(C)(C)C)nn2-c2ccccc2)nc2ccccc2c1=O | 11% | -29 | -14 | 12 | 14
C=Cn1cc[n+](CC(=O)c2ccc(Cl)c(Cl)c2)c1 | . | . | . | -4.0 | -3
Cc1ccc(S(=O)(=O)Nc2nc3cc(C)c(C)cc3[nH]2)cc1 | 8% | . | -6 | -0.7 | -10
O=C(Nc1ccon1)Nc1ccccc1C(F)(F)F | . | . | . | 1.0 | -6
CN(C)c1nc(SCCOC(=O)Nc2ccccc2)nc(N(C)C)n1 | 3% | -9 | -8 | 4.1 | 7
O=C(COC(=O)CCCC1=NS(=O)(=O)c2ccccc2N1)Nc1ccccc1 | . | . | . | -4.0 | -4
Cc1ccc(SCCNC(=O)c2ccc(C)c(S(=O)(=O)Nc3cccc(C)c3)c2)cc1 | -6% | -22 | -29 | 4.0 | 6
Cc1cccc(NC(=O)Cn2cc([N+](=O)[O-])cn2)n1 | -5% | . | 9 | -2.8 | -3

Brought forward from above: 5 entries, then new ones.
SMILES | Mtb H37Rv | YopH inh | Arbovirus anti | RecA splice inh | Mtb bLac sens | others
O=C(Nc1ccon1)Nc1ccccc1C(F)(F)F | . | . | . | 1.0 | -6
CN(C)c1nc(SCCOC(=O)Nc2ccccc2)nc(N(C)C)n1 | 3% | -9 | -8 | 4.1 | 7
O=C(COC(=O)CCCC1=NS(=O)(=O)c2ccccc2N1)Nc1ccccc1 | . | . | . | -4.0 | -4
Cc1ccc(SCCNC(=O)c2ccc(C)c(S(=O)(=O)Nc3cccc(C)c3)c2)cc1 | -6% | -22 | -29 | 4.0 | 6
Cc1cccc(NC(=O)Cn2cc([N+](=O)[O-])cn2)n1 | -5% | . | 9 | -2.8 | -3
CS(=O)(=O)N1CCc2cc(S(=O)(=O)N3CCN(Cc4ccc5c(c4)OCO5)CC3)ccc21 | -7% | -32 | -2 | -0.5 | -1
CC1CN(C(=S)NC(=O)c2ccccc2)CC(C)O1 (configuration not stated) | . | . | . | -2.8 | -11
C/C(Cl)=C/CSc1nnc2n(N)c(=O)c3ccccc3n12 | 1% | -87 | -2 | 2.2 | -2
CCN1CCN(c2cc(=O)n(Cc3ccc(F)cc3)c(=O)[nH]2)CC1 | 4% | . | -2 | -0.2 | -1
Cc1cc(C)cc(OCC(=O)NNC(=O)CN2C(=O)c3ccccc3C2=O)c1 | 6% | -4 | 8 | . | -10
O=C(Nc1ncnc2sc3c(c12)CCCC3)c1ccncc1 | -1% | . | 0 | 0.3 | 4
Cc1ccccc1NC(=O)c1nc[nH]c1C(=O)NCc1ccccc1 | 60% | 13 | -10 | -0.3 | 99
NC(N)=N/N=C/c1ccc(Br)cc1 | 12% | . | -30 | -0.4 | 6
CC(C)(C)C(=O)Cn1c(=N)n(Cc2ccccc2Cl)c2ccccc21 | 7% | -23 | -1 | 7.4 | 51
CCOC(=O)c1cc2c(n(-c3ccc(Cl)cc3)c1=O)CCCC2=O | 2% | . | -4 | -0.9 | -3
Cc1ccc(C(=O)Nc2ncc3c(n2)CC(c2ccco2)CC3=O)cc1 (configuration not stated) | 4% | -44 | -13 | 5.5 | 1
Cn1c(=O)c2c(-c3cccc(Br)c3)c(C#N)c(N)nc2n(C)c1=O | -2% | . | . | -12 | -5
COc1ccc(NC(=O)c2ccc(C)cc2Cl)c([N+](=O)[O-])c1 | 1% | -34 | -2 | -0.9 | 6
Cc1ccc(CC(=O)N2CCOCC2)cc1 | 2% | 0 | 2 | -0.9 | -12
CC(C)COP(=O)(c1ccc(N(C)C)cc1)C(O)c1cccnc1 (configuration not stated) | 1% | . | . | 0.0 | -12
CCc1cc2cc3c(cc2nc1SCC(=O)Nc1nccs1)OCO3 | -3% | -37 | -15 | 1.1 | 4
CCCc1nc2sc3c(=O)n(N)cnc3c2c2c1CCCC2 | -2% | -11 | -1 | 0.6 | 7
COc1cccc(NC(=O)C(=O)N2CCOCC2)c1 | -5% | -30 | -1 | . | 0
O=C(Cc1ccc(S(=O)(=O)N2CCOCC2)s1)N1CCN(S(=O)(=O)c2cccc([N+](=O)[O-])c2)CC1 | . | . | . | -1.2 | -7

Some of the compounds tested; count on the stated rates, not on these rows.
